Bioassay records deposited in PubChem BioAssay by several laboratories.
LANA-H2B inh – blockers of LANA interaction with H2A/H2B – biochemical, FP readout, HTS, primary screen; AID 2629, 2010; 320,000 tested, 0.6% active; inhibition, % (concentration not given with the values); Protein LANA1 (Human herpesvirus 8 type P (isolate GK18)), Q9QR71; cell-free LANA-H2A/H2B peptide, fluorescence polarization; in the data active = inhibition mostly above about 10%, no sharp cut-off; inactive = mostly below about 6.7%;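 also: stock transfer was 7.5 nL into about 10 µL; 0% = median of vehicle wells and 100% = median of positive control wells; one replicate is shown; the record names a cut of 25% in any replicate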
Target sequence (Q9QR71 whole entry, looked up): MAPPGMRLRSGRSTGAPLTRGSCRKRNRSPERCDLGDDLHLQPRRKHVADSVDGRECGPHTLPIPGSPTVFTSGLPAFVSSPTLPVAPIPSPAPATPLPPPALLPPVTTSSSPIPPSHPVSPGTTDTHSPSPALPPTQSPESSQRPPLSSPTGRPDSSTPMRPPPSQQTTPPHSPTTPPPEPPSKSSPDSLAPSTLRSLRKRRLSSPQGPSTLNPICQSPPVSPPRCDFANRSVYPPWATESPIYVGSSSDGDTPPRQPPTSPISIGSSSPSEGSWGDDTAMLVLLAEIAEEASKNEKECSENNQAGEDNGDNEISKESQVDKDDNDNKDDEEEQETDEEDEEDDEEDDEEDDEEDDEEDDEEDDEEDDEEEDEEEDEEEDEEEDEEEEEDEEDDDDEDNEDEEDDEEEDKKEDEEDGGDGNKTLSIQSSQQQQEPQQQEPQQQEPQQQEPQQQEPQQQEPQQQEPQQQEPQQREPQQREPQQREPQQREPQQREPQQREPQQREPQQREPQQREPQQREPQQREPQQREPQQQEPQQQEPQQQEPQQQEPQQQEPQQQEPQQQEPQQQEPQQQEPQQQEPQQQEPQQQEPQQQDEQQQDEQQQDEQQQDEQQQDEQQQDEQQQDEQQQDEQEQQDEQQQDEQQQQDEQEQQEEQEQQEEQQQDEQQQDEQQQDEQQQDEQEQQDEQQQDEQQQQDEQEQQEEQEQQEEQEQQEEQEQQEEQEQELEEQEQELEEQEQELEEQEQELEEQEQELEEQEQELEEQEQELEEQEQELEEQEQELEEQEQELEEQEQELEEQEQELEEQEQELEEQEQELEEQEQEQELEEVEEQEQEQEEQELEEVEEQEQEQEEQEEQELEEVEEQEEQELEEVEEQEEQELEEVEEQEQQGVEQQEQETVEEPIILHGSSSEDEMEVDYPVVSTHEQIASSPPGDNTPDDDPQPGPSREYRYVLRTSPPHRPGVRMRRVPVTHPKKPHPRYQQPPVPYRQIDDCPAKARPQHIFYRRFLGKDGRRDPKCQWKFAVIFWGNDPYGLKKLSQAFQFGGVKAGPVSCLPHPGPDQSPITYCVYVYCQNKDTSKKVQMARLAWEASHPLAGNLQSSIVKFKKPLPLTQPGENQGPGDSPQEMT
Calb FLC – C. albicans growth inhibition with fluconazole, primary screen, CaCi-2 strain, Alamar Blue fluorescence. C. albicans CaCi-2 (fluconazole-resistant clinical isolate) + fluconazole, 48 h. growth inhibition, % (concentration not given with the values). AID 1979, 2009. 300,000 tested, 0.57% active;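 active = most replicates above 75%; inconclusive = exactly half above 75%; inactive = most below 75%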;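 also: all wells also contain fluconazole at 8 µg/ml as a sub-toxic cotreatment; 0% = median of DMSO wells and 100% = median of geldanamycin control wells; wells of about 8 µL received 7.5 nL stock; the first replicate is given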
MLL AF4-AF9 inh – inhibitors of AF4 peptide binding to AF9, primary screen, biochemical, AlphaScreen, biotin-AF4 peptide, FLAG-AF9, single point; inhibition, % at 10 µM; 350,000 tested, 0.47% active; Protein AF-9 (Homo sapiens), P42568; AID 651704, 2012;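 active = every replicate reaching a set inhibition limit, whatever the replicate mean, cut at about 25% in these data; inconclusive = mean inhibition reaches that limit but some replicates miss it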;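 also: 0% = plate neutral control median and 100% = total signal loss; the record names both 10 and 1 µM as test concentration; the first replicate is given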
T cruzi inh – inhibitors of intracellular T. cruzi growth, primary screen, luminescence, NIH3T3 host cells. inhibition, % (concentration not given with the values). 300,000 tested, 1.4% active. T. cruzi beta-gal in NIH3T3, 90 h;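 active = mean inhibition across valid replicates above about 55%, limit read from the data; inconclusive = mean below that limit but half or more replicates reach it; inactive = mean below it, under half of replicates reach it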;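 also: signal also drops with host cell toxicity which is not excluded here; 0% = plate median of DMSO wells and 100% = zero luminescence signal; higher percent means less beta-gal luminescence so fewer parasites; stock transfer was 50 nL into about 50 µL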
RanGTP-Impb inh – inhibitors of RanGTP-importin-beta interaction, primary screen, biochemical, FRET, CFP-Ran, YFP-importin-beta, homogeneous | Ran GTPase (GTP-bound) - importin-beta complex | cell-free CFP-Ran/YFP-importin-beta FRET ratio | inhibition, % (no concentration beside the values) | 300,000 tested, 1.1% active | AID 2216, 2009;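 active = most replicates above 15%; inconclusive = exactly half above 15%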;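 also: 0% = DMSO wells and 100% = Ran loaded with GDP instead of GTP; wells of about 40 µL received 100 nL stock; the first replicate is given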
Bfl-1 A1 inh – caspase 3/7 activation in MEF A1-2A-BIM cells, primary screen, A1 inhibitor project, cell-based, luminescence, HTS; Caspase-Glo 3/7 luminescence, 3 h; percent of clofoctol response, vehicle zero; caspase activation, % (test concentration not listed); 330,000 tested, 0.066% active;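 active = over half of replicate activation scores above 10%, or exactly half above 10 with the replicate mean above 10; inconclusive = replicate mean below 10 yet half the replicates above 10; inactive = over half of replicates below 10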;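 also: wells of about 30 µL received 50 nL stock; many hits fall short of the cut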
Beta cell apopt – inhibitors of cytokine-induced beta cell apoptosis, primary screen, luminescence; INS-1E cytokine-induced death, ATP luminescence, 48 h; percent of positive-control rescue, neutral wells zero; protection from apoptosis, % (test concentration not listed); 300,000 tested, 0.8% active; AID 435005, 2010;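 active = all replicates at 75% or more, or half of them and the mean; inconclusive = half reach 75% but not the mean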;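 also: 0% = cytokine-treated negative control wells and 100% = positive control rescue; higher means more ATP so stronger rescue from cytokine killing; wells of about 40 µL received 100 nL stock; the first replicate is given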
Vif TR-FRET – inhibitors of Vif binding to APOBEC3G peptide, primary screen, biochemical, TR-FRET, GST-Vif 1-94, biotin-A3G peptide, dose response retest (AID 1117319); Virion infectivity factor (Human immunodeficiency virus type 1 group M subtype B (isolate …; TR-FRET GST-Vif / biotin-A3G peptide binding; higher % means a stronger effect; test concentration not given here; strong numbers were not always called active; one-dose inhibition, %; IC50 in µM for titrated hits; 260,000 tested, 0.57% active;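 active = above the screen mean plus three standard deviations and confirmed in dose response; inconclusive = results disagree or hit not tested in dose response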;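 also: Vif residues 1-94 fused to GST binding biotinylated APOBEC3G peptide 110-148; 0% = full assay without inhibitor and 100% = GST in place of GST-Vif; retest series ran down from 100 µM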
* = called active by the depositor; ? = inconclusive; . = no result given; & = joins results of further samples.

SMILES	LANA-H2B inh	Calb FLC	MLL AF4-AF9 inh	T cruzi inh	RanGTP-Impb inh	Bfl-1 A1 inh	Beta cell apopt	Vif TR-FRET
CC(=O)n1c(=O)oc2ccccc21	-3.4	13	-0.8	-11	-2.1	0.0	-6	.
COC(=O)c1ccccc1NC(=S)NC(=O)C1CC1	2.5	-3	1.4	17	-1.7	1.0	-6	1%
COc1ccc(S(=O)(=O)Nc2nc3ccccc3nc2NCC2CCCO2)cc1 (stereo not given)	1.2	1	8.9	-3	?	0.3	-3	-1%
COc1ccc(C2(C)NC(=O)N(CC(=O)Nc3ccc(Br)c(C)c3)C2=O)cc1OC (stereo not given)	6.2	5	11	-13	21*	0.0	-1	.
CCOc1ccc(NC(=O)CN(C)C(=O)C2(c3ccccc3)CC2)cc1OCC	2.8	-6	0.4	-13	-0.3	1.5	-3	4%
CCCCCC/C(=N\NS(C)(=O)=O)c1ccccc1	1.5	-14	.	2	?	1.2	1	23%
CCn1c(Cc2ccc(OC)cc2)nc2ccccc21	3.4	-1	0.4	-12	?	0.2	-1	.
O=C(CN1CCOCC1)Nc1ccc(Br)cc1	-2.4	-2	-3.0	-21	0.8	-0.3	-3	-5%
CCOc1ccc(/C=C2/Sc3ccc(C(=O)N4CCN(C(=O)c5ccco5)CC4)cc3N(C)C2=O)cc1OC	1.8	-2	.	11	0.8	0.1	8	4%
O=C(CN1C(=O)C2CCCCC2C1=O)Nc1cccc(C(F)(F)F)c1 (stereo not given)	-1.8	.	1.2	.	.	-0.5	-1	-3%
COc1ccc(C(=O)NCc2nnc(SCC(=O)Nc3cc(C)cc(C)c3)o2)cc1OC	-5.0	-3	.	-19	-1.0	1.1	0	4%
NC(=O)c1c(NC(=O)Cn2cc([N+](=O)[O-])cn2)sc2c1CCCC2	6.3	49	1.1	3	-3.0	0.6	-5	1%
O=C(NCc1ccccn1)c1ccc2ccccc2n1	-0.9	-3	3.7	3	2.0	0.3	-7	4%
CN(CC(=O)Nc1cccc(F)c1)CC(=O)Nc1ccccc1Oc1ccccc1	-1.5	-7	-1.3	-7	5.8	0.9	1	-7%
O=S1(=O)c2cccc3cccc(c23)N1Cc1nnc(-c2ccccc2Br)o1	0.9	7	.	4	8.5	-0.4	0	?
Cc1oc(-c2cccs2)nc1CN1CCN(CC(C)C)C(CCO)C1 (stereo not given)	2.3	-11	-10	9	2.1	1.0	-3	2%
CC(C)C[C@H](NC(=O)[C@H](Cc1ccccc1)n1c(=O)[nH]c2ccccc2c1=O)C(=O)N1CCC(C(=O)O)CC1	-6.8	-8	-3.3	-4	0.1	-0.4	-4	.
Cc1ccnc(NS(=O)(=O)c2ccc(NS(=O)(=O)c3ccc(Br)cc3)cc2)n1	-0.8	-1	-1.2	-3	2.6	0.5	-10	.
Cc1noc(C(=O)Nc2c(C)n(C)n(-c3ccccc3)c2=O)c1Cl	2.3	5	6.3	-16	1.0	1.2	-11	15%
CCN(CC)CCCN=Cc1c(O)n(Cc2ccccc2)c(=O)c2ccccc12	.	-4	.	46	8.4	0.0	6	-3%
Cc1ccccc1C1c2[nH]c3ccccc3c2CCN1CCCn1cccn1 (stereo not given)	-5.7	5	11	8	-37	-1.1	1	24%
O=C(c1ccc(Br)cc1)N1CCC(C(=O)N2CCN(Cc3ccccc3)CC2)CC1	-6.0	23	-0.5	11	1.2	0.9	-2	.
COc1ccc(S(=O)(=O)N2CCOC23CCN(S(=O)(=O)c2cccs2)CC3)cc1	.	-9	-1.0	25	-0.3	.	.	-6%
Cc1nnc(N(C(=O)c2cnccn2)c2ccccc2)s1	3.7	-6	.	-1	8.5	2.2	-7	1%
Brc1ccc2c(c1)CN1CCCC1=N2	-4.0	38	-1.3	28	7.5	-0.2	-14	.
COC(=O)CC[C@@H](C(=O)O)N1C(=O)c2ccccc2C1=O	2.0	18	.	1	?	-0.2	1	2%
CC(=O)Nc1ccc(NC(=O)COC(=O)Cc2cccs2)cc1	0.4	2	.	1	1.1	-0.2	5	?
COC(=O)Cn1cc(C(=O)C(F)(F)F)c2ccccc21	0.8	-6	-3.1	-24	0.5	0.9	-3	2%
CCOC(=O)c1c(NC(=O)COc2cccc3c2CCN(Cc2ccc(F)cc2)C3=O)sc2c1CCC2	-2.4	11	.	-1	-2.0	-1.3	.	.
O=C(COC(=O)c1ccc(Cl)c(S(=O)(=O)N2CCCC2)c1)NCc1ccccc1	-5.8	.	-2.1	.	.	0.6	0	6%
Cc1ccc(-c2onc3ccc(Cl)cc23)cc1	-3.0	-4	.	-12	-1.3	0.5	-5	1%
O=C(C1=C[C@@H](c2coc3ccccc3c2=O)C[C@@H](OCCCCO)O1)N1CCN(Cc2ccccc2)CC1	-1.1	-19	-1.6&0.2	-17	-1.2	0.8	.	.
Cc1ccc(NC(=O)CCC(=O)n2nc(C)cc2C)c(C)c1	-0.4	-4	-3.3	-8	-9.5	-0.5	1	-6%
Cc1cc(C)c(OCC(=O)Nc2ccccc2N2CCCCC2)c(C)c1	-2.5	0	-0.2	32	3.5	0.3	8	2%
O=C(NC1CCS(=O)(=O)C1)Oc1ccccc1 (stereo not given)	-3.6	7	.	-7	1.3	0.4	5	-1%
COC(=O)c1ccc(C(=O)Nc2ccc(N)cc2N)cc1	-12	-4	.	1	-38	-2.2	3	12%
Cc1ccc(F)c(Cn2cnc3c(cnn3C(C)(C)C)c2=O)c1Cl	7.0	.	-31	.	.	-0.1	8	.
COC(=O)c1ccc2c(c1)S(=O)(=O)NC(=NCCCN1CCOCC1)S2	2.3	5	.	-10	5.5	0.7	-3	3%
N#CC1=C(N)N(c2ccccc2)C2=C(C(=O)CCC2)C1c1cccs1 (stereo not given)	3.5	-12	.	20	-0.9	0.3	-3	?
Cc1ncc(CO)c2cc(S(=O)(=O)c3ccc(F)cc3)c(=O)oc12	4.6	3	-2.9	-6	6.6	-0.2	-8	31%
COc1ccccc1/C=C/C=N/n1c(C2CCCCC2)n[nH]c1=S	-6.7	0	4.0	-14	-0.1	0.2	-3	.
Cc1ccc(CNC(=O)CCNS(=O)(=O)c2ccc(Br)s2)cc1	-3.7	-6	-0.7	-10	0.3	-0.1	-2	2%
O=C(C1CCCN(S(=O)(=O)c2cc(Cl)ccc2Cl)C1)N1CCOCC1 (stereo not given)	0.5	0	0.9	0	-0.2	0.0	0	.
COc1cc2c(cc1OC)C(c1cccs1)N(C(=S)NC(C)C)CC2 (stereo not given)	-1.9	9	3.0	-5	-4.7	-0.7	-2	8%
O=C1CN(C(=O)NCC(=O)N[C@H](Cc2ccccc2)C(=O)O)c2ccccc2N1	-2.1	-3	-1.9	-3	-3.4	-0.1	-3	.
COC(=O)c1ccccc1NS(=O)(=O)c1ccc2[nH]c(=O)[nH]c2c1	2.9	41	.	6	-0.5	0.4	.	.
O=C(NCC(c1cccs1)N1CCOCC1)c1ccc([N+](=O)[O-])cc1 (stereo not given)	11	5	.	-10	0.7	-0.6	3	9%
O=C(CSc1nc2ccccc2c(=O)n1CCCN1CCOCC1)c1c[nH]c2ccccc12	-5.1	21	5.9	21	-4.3	-0.1	-1	.
Cc1ncc([N+](=O)[O-])n1CCOC(=O)c1ccc(Cl)cc1Cl	-4.6	4	.	10	-1.9	-0.6	5	5%
CC(C)Cc1cc(C(=O)Nc2ccc3c(c2)OCO3)no1	-1.3	6	6.8	-4	-1.8	-4.5	2	-1%

(listing goes on)
SMILES	LANA-H2B inh	Calb FLC	MLL AF4-AF9 inh	T cruzi inh	RanGTP-Impb inh	Bfl-1 A1 inh	Beta cell apopt	Vif TR-FRET
COc1cc(C(C)=O)ccc1Oc1ncccn1	-8.1	-15	-1.7	-8	0.7	1.9	-5	.
Cc1ccccc1NS(=O)(=O)c1ccc(C(=O)N2CCCCCCC2)cc1	-2.3	27	-6.1	9	3.8	2.0	4	-5%
COc1ccc(-c2cccc(C3CC=CC4C3C(=O)N(Cc3ccccc3)C4c3ccc(OC)c(Cl)c3)c2)cc1 (stereo not given)	-1.8	3	.	30	-1.5	-0.3	1	.
O=[N+]([O-])c1cnccc1Nc1cccc(F)c1	-3.6	-18	.	-1	1.0	-0.4	-5	2%
COc1ccc(S(=O)(=O)NC2CCCC2)cc1Cl	0.7	-5	-13	-5	0.7	0.9	0	2%
Cc1ccc(CN2CCNC(=O)C2CC(=O)N(C)C(C2CC2)C2CC2)o1 (stereo not given)	1.6	-1	-2.0	-21	-2.0	1.3	-3	-12%
O=C(N/N=C/c1ccco1)/C(=C/c1cccc([N+](=O)[O-])c1)NC(=O)c1ccccc1	-5.4	11	.	-3	3.5	-0.1	3	6%
Cc1ccc(C)c(OCCCNC2CCCC2)c1C	-4.6	-29	1.9	34	5.5	-0.4	0	-5%
COC(=O)C1(CO)NC(c2cccs2)C2C(=O)N(c3ccccc3)C(=O)C21 (stereo not given)	1.4	7	.	1	-2.6	0.6	-3	16%
COc1cc(C(=O)NC2(C(F)(F)F)NC(=O)N(CCCc3ccccc3)C2=O)cc(OC)c1OC (stereo not given)	-0.5	42	3.4	2	-2.3	0.0	7	.
CC(C)C(=O)Nc1ccccc1N1CCN(C(=O)c2ccccc2)CC1	-4.0	1	.	-12	4.6	1.5	2	2%
COc1cc(C(=O)COC(=O)c2cc([N+](=O)[O-])ccc2N2CCOCC2)ccc1OC(F)F	0.3	.	1.5	8	2.3	-0.6	5	0%
CCOc1ccc(/C=C(\C#N)C(=O)Nc2cccnc2)cc1	-5.9	-5	.	-1	-0.4	-0.3	0	.
CC1(CCc2ccc(O)cc2)NC(=O)NC1=O (stereo not given)	1.8	0	.	-24	1.1	-0.4	-2	6%
CCOC(=O)c1c(NC(=O)Cn2nc(C(=O)O)c3ccccc3c2=O)sc2c1CCC(C)C2 (stereo not given)	1.2	8	3.2	-21	-2.6	-0.7	-3	.
CCOC(=O)C1CCN(C(=S)Nc2ccc(S(N)(=O)=O)cc2)CC1	1.5	12	-14	-1	-0.6	0.7	-12	-15%
Cc1ccc(C)c(OCC(=O)N/N=C/c2ccsc2)c1	-2.7	4	.	-15	?	-0.5	-8	4%
CCS(=O)(=O)c1ccc2oc(SCC(=O)N3CCCCC3)nc2c1	.	5	-0.6	5	1.0	0.1	-2	.
COc1ccc(NC(=O)c2cccs2)cc1OC	-1.0	24	.	-6	-0.8	0.2	-4	2%
CC(=O)N1CCN(CC(C)(C)NS(=O)(=O)c2ccccc2)CC1	-3.9	.	-6.7	.	.	0.1	-4	.
CN(C)CCOc1ccccc1-c1ccccc1	-0.4	-4	.	2	2.1	0.7	-10	-2%
